Screening results: PubChem BioAssay, National Center for Advancing Translational Sciences (NCATS)
StopGo RLuc = FMDV 2A StopGo reporter, Renilla signal | Potency, µM (top dose mostly 57.5 µM), for the others: top-dose signal change, negative = less light | HEK cells with a luciferase reporter of 2A StopGo recoding | 120,000 compounds, 0.32% hits; active means well fitted falling curve with a large enough effect; inconclusive means small, poorly fitted or top-dose-only effect; inactive means no such curve, though single readings can be large or run the other way; further: nearly all actives have a fitted effect of over 55% in size; overnight with compound
StopGo FLuc = lowers the firefly signal of an FMDV 2A StopGo reporter; HEK cells with a luciferase reporter of 2A StopGo recoding; Potency, µM (top dose mostly 57.5 µM), for the others: top-dose signal change, negative = less light; 120,000 compounds, 0.23% hits; AID 1745856; active = well fitted falling curve with a large enough effect; inconclusive = small, poorly fitted or top-dose-only effect; inactive = no such curve, though single readings can be large or run the other way; further: nearly all actives have a fitted effect of over 60% in size; overnight with compound
* marks the source's active call; other numbers are inactive results; ? = inconclusive; & = joins results of further samples; [ ] = remark or other dose. On the % scale 0 is the no-effect control and ±100 the full control effect; potency means the concentration at half of the fitted maximal effect.

Molecule	StopGo RLuc	StopGo FLuc
CCOC(=O)c1ccc(NC(=O)C2(S(=O)(=O)c3ccc(Cl)cc3)CC2)cc1	8%	-2%
CN(CC(=O)Nc1ccc(Oc2ccccc2)cc1)C1=NS(=O)(=O)c2ccccc21	?	?
COc1ccccc1-c1c(C)oc2cc(OCC=C(C)C)ccc2c1=O	?	20%
CCCc1ccc(OCC(=O)Nc2sc(C(=O)OCC)c(C)c2C(=O)OCC)cc1	4%	10%
CC(=O)Nc1nnc2n1CCS2	-8%	4%
COc1ccc(C2(C)N(O)C(C)C(c3cccs3)=[N+]2[O-])cc1 (stereo not drawn)	-3%[1.06 µM]	-4%
O=C(Nc1ccc(-c2nc3cc(NC(=O)c4ccc(F)cc4)ccc3o2)cc1)c1ccc(F)cc1	-20%	-9%
CCOc1ccccc1NC(=O)CCc1c(C)nc2cc(-c3ccccc3)nn2c1C	-5%	?
Cc1scc(C(=O)NCc2cccnc2)c1C	6%	18%
Cc1ccc2nc(/C(C#N)=C/c3ccc(-c4ccc(C(=O)OC(C)C)cc4)o3)[nH]c2c1	16%	38%[activator]
O=c1c(=O)n(Cc2c(F)cccc2Cl)ccn1Cc1ccccc1	-2%	-18%
C/C(=N/O)c1ccc(-n2cncn2)cc1	1%	21%
Cc1ccc2nc(-c3cccc(Cl)c3)c(Nc3ccc4c(c3)OCO4)n2c1	16%	3%
Clc1ccc(Oc2cc(Cl)c(Cl)cc2Cl)cc1	8%	0%
CCCN(CCC)C(=O)Cn1c(=O)n(-c2ccc(OC)cc2)c(=O)c2ccc(C(=O)NCc3ccc(C)cc3)cc21	293%[activator]	0%
CCN1c2ccccc2-n2cccc2C12CCN(C(=O)Nc1ccccc1Br)CC2	13%	0%
O=C(NCc1ccccc1)C1CCN(C(=O)c2cnn(-c3ccccc3)c2-n2cccc2)CC1	-5%	0%
CC(C)(C)c1cc(N=Cc2ccccc2O)cc(C(C)(C)C)c1O	29%	0%
O=c1[nH]c(=O)n(-c2cccc(Cl)c2)c2c1CN(Cc1ccco1)CN2	-6%	-5%
COc1ccc(C(=O)OC(C)c2nc(C(C)(C)C)no2)cc1OC (stereo not drawn)	10%	1%
CC(=O)N1CCCc2cc(S(=O)(=O)NCc3ccc(N(C)C)cc3)ccc21	12%	-8%
CCc1ccc(CNC(=O)C2CCN(C(=O)N3CC(CC)Oc4ccc(C)cc43)CC2)cc1 (stereo not drawn)	-10%	-32%
COc1cccc(-c2nn3c(C(C)C)nnc3s2)c1OC	31%[activator]	229%[activator]
CN(C)CCn1nnnc1SCc1ccc(OCc2ccccn2)cc1	-4%	0%
O=S(=O)(N1CCCCC1)N1CCCC(c2nc3ccccc3o2)C1 (stereo not drawn)	14%	33%[activator]
Oc1c(C(c2ccccc2)N2CCN(c3cccc(Cl)c3)CC2)sc2nc(-c3ccco3)nn12 (stereo not drawn)	1%	-15%
O=C(CSc1nnc(COc2ccc(Cl)cc2)o1)Nc1ccccc1	-3%	-11%
CN1CC(=O)N2[C@H](c3ccc4c(c3)OCO4)c3[nH]c4ccccc4c3C[C@@H]2C1=O	27%	2%[11.5 µM]
CC(=C/c1ccco1)/C=N/Nc1ccc([N+](=O)[O-])cc1[N+](=O)[O-]	7%	137%[activator]
CCC(CO)NS(=O)(=O)c1ccc(Cl)c(Cl)c1Cl (stereo not drawn)	38%[activator]	6%
O=C(Nc1ccc(F)cc1)c1nc2ccccc2nc1N1CCCCC1	3%	10%
CCOC(=O)c1cc2cc(C(C)C)ccc2[nH]1	14%[1.06 µM]	166%[activator]
COc1ccc(OC)c(S(=O)(=O)Nc2cccc(CCc3nc4ccccc4n3C)c2)c1	109%[activator]	0%
O=C(CN1CCN(c2cnn(-c3ccccc3)c(=O)c2Cl)CC1)Nc1ccc2c(c1)OCCO2	15%	22%
COC(=O)CN1C(=O)CSc2ccc(S(=O)(=O)Nc3cccc(C)c3C)cc21	116%[activator]	-14%
CCc1ccc(OCC(=O)Nc2cccc3ccc(C)nc23)cc1	13%	22%
Cc1ccc2nc(-c3ccc(Cl)c(NC(=O)c4ccc5c(c4)OCCO5)c3)oc2c1	5%	246%[activator]
CCCCCCC1C2=C(CC(C)(C)CC2=O)OC2=C1C(=O)CC(C)(C)C2	130%[activator]	8%
CCCc1cc(C(=O)Nc2ccccc2C#N)cs1	-16%	147%[activator]
Cc1c(Cl)cccc1NC(=S)NNC=O	8%	24%
CCN(C(=O)c1cccc(C(F)(F)F)c1)C1CC1	6%	7%
COc1cccc(-n2ccn(Cc3c(F)cccc3Cl)c(=O)c2=O)c1	-17%	40%[activator]
CC(=O)NC(O)C(=O)c1ccc(C)cc1 (stereo not drawn)	-1%	11%
CCc1cc(=O)n(CC(=O)Nc2ccc(C(=O)OC)cc2)c(-c2ccccc2)n1	-2%	9%
CSCCC(=O)NCCc1cccs1	5%	24%
CCc1ccc(NC(=O)c2nccnc2N)cc1	9%	148%[activator]
CC1CCN(S(=O)(=O)c2ccc3c(c2)N(CC(=O)NCCc2ccc(Cl)cc2)C(=O)CO3)CC1	68%[activator]	-11%
CC(C)(CNC(=O)C1CCCC(C(F)(F)F)C1)C(N)=O (stereo not drawn)	-7%	-16%
COc1ccccc1NC(=O)C(=O)NCc1ccccc1	46%[activator]	89%[activator]
CCOc1ccc(NC(=O)COc2ccc(CC)cc2)c2cccnc12	?	?

Overlap with the part before: four entries, then new ones.
Molecule	StopGo RLuc	StopGo FLuc
CC1CCN(S(=O)(=O)c2ccc3c(c2)N(CC(=O)NCCc2ccc(Cl)cc2)C(=O)CO3)CC1	68%[activator]	-11%
CC(C)(CNC(=O)C1CCCC(C(F)(F)F)C1)C(N)=O (stereo not drawn)	-7%	-16%
COc1ccccc1NC(=O)C(=O)NCc1ccccc1	46%[activator]	89%[activator]
CCOc1ccc(NC(=O)COc2ccc(CC)cc2)c2cccnc12	?	?
CCc1ccc2oc(=O)cc(CN3CCN(C(=O)c4ccco4)CC3)c2c1	-8%	-6%
CC(C)n1nc(C(=O)OCC(=O)Nc2ccc3c(c2)OC(F)(F)O3)c2ccccc2c1=O	-12%	-6%
Clc1ccc(OCc2nc3ccccc3n2Cc2ccccc2)c(Cl)c1	22%	145%[activator]
COc1ccc(C(=O)Nc2ccc3nc(SCC(=O)N(C)c4ccccc4)sc3c2)cc1	28µM*	?
CC(C)n1nc(C(=O)Nc2ccc(Oc3ccccc3)cc2)c2ccccc2c1=O	4%	19%
CC(NC(=O)CNC(N)=O)c1cccc(C(F)(F)F)c1 (stereo not drawn)	8%	3%
O=C(CCc1cccnc1)NC(C1CC1)C1CC1	3%	-11%
Cc1cccc(Cc2c(C)nc3nc(SCc4cccc(F)c4)nn3c2C)c1	5%	6%
CCCn1c(Sc2ccccc2)nc2c1c(=O)[nH]c(=O)n2C	-4%	-2%
Cc1oc(-c2ccccc2Cl)nc1CN1C(=O)CN=C(c2ccccc2)c2cc(Cl)ccc21	-6%	-8%
CCOC(=O)N1CCc2c(sc3c2c(=O)n(Cc2ccccc2)c(=O)n3CC(=O)Nc2ccc(C)c(C)c2)C1	-11%	-15%
CC(C)CNC(=O)CC(C)Cc1nnc2c(=O)n(-c3cccc(F)c3)ccn12 (stereo not drawn)	-4%	14%
Cc1cc(C=O)c(C)n1CCc1ccc(Cl)cc1	-15%	-12%
CCOc1cc(CN2CCCCCC2c2ccc(Cl)cc2)ccc1OCC(N)=O (stereo not drawn)	-10%	-9%
O=C(CC1CC2CCC1C2)Nc1ccc(-c2nccs2)cc1 (stereo not drawn)	0%	75%[activator]
CCc1nn(Cc2cc(C)ccc2C)c(=O)c2cc3cc(C)ccc3n12	-27%	-3%
COc1ccc(CNC(=O)c2sc(-c3ccc(C)cc3)nc2C)cc1	42%[activator]	52%[activator]
Cc1nc(C23CC4CC(CC(C4)C2)C3)c(C)o1	5%	11%
COP(=O)(OC)c1nc(C(c2ccccc2)c2ccccc2)oc1NCc1ccco1	48%[activator]	53%[activator]
COc1ccc(C(=O)c2sc3nc(-c4ccc(C)cc4)cc(C(F)(F)F)c3c2N)cc1	-12%	-16%
Cc1ccc(C(=O)OCc2nc(N)c3ccccc3n2)cc1	-15%	11%
CS(=O)(=O)N1CCc2cc(C(=O)c3cc4cc(Br)ccc4o3)ccc21	2%	20µM*
COc1cccc(C(=O)Nc2cccc(C(=O)OCc3cc(=O)n4c(C)csc4n3)c2)c1	27%	24%
Cc1ccc2c(=O)cc(C(=O)Nc3ccc(S(=O)(=O)Nc4onc(C)c4C)cc3)oc2c1C	-12%&-8%	-17%&-5%
Cc1noc2nc(-c3ccccc3)cc(C(=O)NCc3ccc(N4CCOCC4)nc3)c12	-1%	2%
O=C(COC(=O)c1cccs1)c1ccc(-c2ccccc2)cc1	9%	87%[activator]
O=C(N/N=C(\c1ccccc1)C1CCCCC1)c1ccc(Cl)cc1	45%[activator]	62%[activator]
c1ccc2c(c1)CCCC2C1=NCCN1 (stereo not drawn)	-6%	-5%
CCC(CC)(CC(=O)Nc1ccccc1CO)C(=O)O	17%	-3%
Cc1ccc(CCNC(=O)CCCn2c(=O)c3ccccc3n(Cc3ccccc3C)c2=O)cc1	14%	5%
Cc1cccc(NS(=O)(=O)c2ccc3[nH]c4c(c3c2)CCCCCC4)c1	-3%	?
O=C(Cn1c(=O)oc2cc(S(=O)(=O)N3CCCCC3)ccc21)NCc1ccc(Cl)cc1	?	?
CN1C(=O)COc2ccc(NC(=O)C(=O)NC3CC(C)(C)NC(C)(C)C3)cc21	-12%	15%
CCc1cc2c(cc3c(=O)n(CC(=O)NC4CCC(C)CC4)ncn32)s1 (stereo not drawn)	2%	10%
O=C(NC1CCCc2ccccc21)C1CC1 (stereo not drawn)	2%	7%
Cc1ccc(C)n1-c1c(C(=O)NCCCN2CCN(c3ccc(F)cc3)CC2)sc2ncccc12	-9%	-8%
O=C(c1ccc(F)cc1)c1ccc(OCc2ccc(-c3ccccc3)cc2)cc1	-8%	-2%
O=c1[nH]c(=O)n(C2CCCCC2)c(O)c1C1=Nc2ccccc2SC(c2ccc(Cl)cc2)C1 (stereo not drawn)	7%	121%[activator]
Cc1nn(-c2ccc(F)cc2)c(-n2cccc2)c1C(=O)N1CCN(c2ccc(F)cc2)CC1	-11%	-15%
COc1cccc(NC(=O)c2sc3nc(C)c(C(=O)Nc4ccc(C)cc4C)c(-c4ccccc4Cl)c3c2N)c1	-7%	0%
Cc1cc(C)c2oc(C(=O)Nc3ccc(S(=O)(=O)N(C)c4ccccc4)cc3)cc(=O)c2c1	-10%	-2%
CCN(CC)S(=O)(=O)c1ccc2c(c1)c(=O)c(C(=O)N(C)Cc1ccccc1)cn2C	1%	-38%
COc1ccccc1-n1c(SCC(=O)Nc2ccc(C)cc2)nc(O)cc1=O	-13%	-14%
CCOC(=O)c1c(N)n(-c2ccc(OCC)cc2)c2nc3ccccc3nc12	-7%	-12%
O=C(CCCc1c[nH]c2ccccc12)N1CCN(CC(=O)N2CCCCCC2)CC1	-14%	2%
C/C(Cl)=C\C[N+]1(C/C=C(\C)Cl)CCCCC1	-1%	-3%
COC(=O)CCCc1c(-c2ccccn2)[nH]c2cc(C)cc(C)c12	-4%	12%
O=C(CN1CCN(CCc2ccccc2)CC1)Nc1ccc2c(c1)CCC2	-16%	-16%
Cc1ccccc1CNC(=O)c1cc2cc(S(=O)(=O)N3CCCCC3)ccc2n1C	21%	-11%
CC(C)(C)c1ccc(C(=O)Nc2ccc(Oc3ccc(Cl)cc3Cl)cc2)cc1	?	?

Next part (two carried over from the part before).
Molecule	StopGo RLuc	StopGo FLuc
Cc1ccccc1CNC(=O)c1cc2cc(S(=O)(=O)N3CCCCC3)ccc2n1C	21%	-11%
CC(C)(C)c1ccc(C(=O)Nc2ccc(Oc3ccc(Cl)cc3Cl)cc2)cc1	?	?
CCCCN(C(=O)c1ccc(-c2ccc(Cl)cc2)o1)c1c(N)n(CCC)c(=O)[nH]c1=O	-3%	6%
O=C(NCCn1ccc2ccccc21)c1ccc(Cl)cc1	16%	182%[activator]
Cc1cc(Br)ccc1NC(=O)CNC(=O)CCc1ncc(-c2ccccc2F)o1	-14%	10%
O=C(CC(c1ccc(F)cc1)N1Cc2ccccc2C1=O)NCCc1ccccc1 (stereo not drawn)	118%[activator]	11%
Cn1c(=O)c2nc(SCCC(=O)O)n(Cc3ccccc3)c2n(C)c1=O	13%	9%
COc1ccc(-c2cn3nc(N4CCC(C(=O)Nc5ccccc5OC)CC4)sc3n2)cc1	-15%	80%[activator]
Cc1cccc(C)c1NC(=O)CSc1nc2ncccc2o1	-11%	-15%
Cc1ccc(CCNC(=O)c2ccc(CNS(=O)(=O)c3ccc(C)cc3)cc2)cc1	1%	-6%
CC(=O)C1=CC[C@H]2[C@@H]3CC[C@H]4C[C@@H](O)CC[C@]4(C)[C@H]3CC[C@]12C	-14%	1%
O=C(/C=C/c1ccccc1)c1ccc(Sc2ccccc2)cc1	-15%	48%[activator]
Cc1ccc(CNC(=O)c2ccc3c(c2)NC(=O)C(CS(=O)(=O)Cc2ccc(F)cc2)N3)cc1 (stereo not drawn)	-15%	-19%
CCn1cnc2c1c(=O)n(CC(=O)NC(C)c1ccccc1)c(=O)n2Cc1ccccc1 (stereo not drawn)	3%	3%
